# D2 ag – activates the human D2 dopamine receptor; P14416; DiscoveRx PathHunter D2 beta-arrestin, luminescence, 90 min; 100% = 57 uM dopamine signal; activation, % (no concentration beside the values); 360,000 tested, 0.084% active; AID 624465; in the data active = activation above about 40%; inconclusive = about 15% to 40%; inactive = below about 15%; note: compound concentration not given in the record; the text of the record calls up to 30% inactive
# Target sequence (P14416 whole entry, looked up): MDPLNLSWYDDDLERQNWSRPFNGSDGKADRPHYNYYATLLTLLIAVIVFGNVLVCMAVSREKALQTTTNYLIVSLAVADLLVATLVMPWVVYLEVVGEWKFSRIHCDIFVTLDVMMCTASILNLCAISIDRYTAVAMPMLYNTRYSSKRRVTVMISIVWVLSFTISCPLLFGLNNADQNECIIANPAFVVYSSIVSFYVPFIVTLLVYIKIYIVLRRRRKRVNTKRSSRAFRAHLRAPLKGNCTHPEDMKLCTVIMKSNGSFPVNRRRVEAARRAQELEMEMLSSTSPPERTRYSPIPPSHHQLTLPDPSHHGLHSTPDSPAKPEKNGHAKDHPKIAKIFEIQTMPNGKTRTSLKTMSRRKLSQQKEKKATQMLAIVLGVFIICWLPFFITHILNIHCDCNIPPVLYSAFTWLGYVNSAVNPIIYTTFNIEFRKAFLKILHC
#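 Agonist mode: compounds alone added to overnight-plated D2 PathHunter cells for 90 min at 37 C, with 57 uM final dopamine (EC100) defining full response. Beta-arrestin recruitment detected by chemiluminescent reagent, read after 1 h at ambient temperature.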
# PINK1 modulator – PINK1 expression modulation | PINK1 immunofluorescence, high-content cytometry, 24 h | Potency, µM (highest dose often 76.6 µM), without a hit: at the highest dose activation (PINK1 increase), actives largely listed as activators | 410,000 tested, 0.2% active; active = well fitted activation curve with a large enough effect; inconclusive = small, poorly fitted or top-dose-only effect; inactive = flat fitted curve, though single readings scatter; cell line not stated here;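 note: potency is the fitted concentration of half-maximal effect; % of control where 0% means no effect; nearly all actives have a fitted effect of over 65% in size; a mitochondrial uncoupler was the plate control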
#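 Cells are seeded, rested 12 hours, then given compound at five concentrations or DMSO for 24 hours. After fixation, blocking and antibody staining, PINK1 amount and mitochondrial localization are scored; CCCP serves as control.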
# Six1-Eya2 blk – inhibitors of human Six1/Eya2 interaction. Q15475+O00167. AlphaScreen GST-Six1/His-Eya2 binding, biochemical; stronger effect = lower value; control for the full effect not named in the record. activity change, % (concentration not given with the values). 360,000 tested, 0.56% active. AID 651725; in the data active = activity change below about -65%; inconclusive = about -30% to -65%; inactive = above about -30%; note: % is set by controls: 0 for no effect and ±100 for the full control effect
#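 GST-Six1 + His-Eya2 (5X stock: 250/500 nM); Tris pH 8.0, 300 mM NaCl, 0.05% BSA, 0.02% Tween 20; GSH donor/Ni acceptor beads; 1 h 37 °C dark; AlphaScreen readout.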
# CtBP-E1A inh – inhibitors of CtBP/E1A interaction; AlphaScreen GST-E1A/His-CtBP binding, 1536-well; stronger effect = lower value; control for the full effect not named in the record; 340,000 tested, 0.49% active; AID 651724; activity change, % (test concentration not listed); in the data active means activity change below about -65%; inconclusive means about -30% to -65%; inactive means above about -30%; note: % is set by controls: 0 for no effect and ±100 for the full control effect; compound concentration not given in the record
#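 GST-E1A and His-tagged CtBP (125 nM each as 5X stock) were preincubated with pin-transferred compound for 2 h at 37 °C in the dark, then glutathione donor and nickel acceptor beads were added for 1 h before AlphaScreen reading.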
# D2 PAM – human D2 receptor positive allosteric modulation; P14416; DiscoveRx D2 beta-arrestin cells, luminescence, 90 min; 100% = 57 uM dopamine signal; potentiation, % (test concentration not listed); 360,000 tested, 0.23% active; AID 624464; active = potentiation of 50% or more; inconclusive = 30% to 50%; inactive = 30% or less;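 note: compound concentration not given in the record; tested on top of an EC20 dose of dopamine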
#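 D2 cells co-treated with compound plus 50 nM dopamine (EC20) for 90 min at 37 deg C to detect potentiation. Beta-arrestin recruitment was read as enzyme-fragment luminescence after 1 h at ambient temperature. Full response was set by 57 uM dopamine.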
# TRPML1 agonist – agonists of human TRPML1 channel; 410,000 tested, 0.12% active; TRPML1-expressing cells, Ca2+ dye fluorescence, FDSS; host cell line not named in the record; reference of the full effect not given here; activation, % (concentration not given with the values); in the data active = activation above about 50%; inconclusive = about 30% to 50%; inactive = below about 30%; note: 0% is about no effect; the text of the record puts the active cut at 80%
# Target sequence (Q9GZU1 whole entry, looked up): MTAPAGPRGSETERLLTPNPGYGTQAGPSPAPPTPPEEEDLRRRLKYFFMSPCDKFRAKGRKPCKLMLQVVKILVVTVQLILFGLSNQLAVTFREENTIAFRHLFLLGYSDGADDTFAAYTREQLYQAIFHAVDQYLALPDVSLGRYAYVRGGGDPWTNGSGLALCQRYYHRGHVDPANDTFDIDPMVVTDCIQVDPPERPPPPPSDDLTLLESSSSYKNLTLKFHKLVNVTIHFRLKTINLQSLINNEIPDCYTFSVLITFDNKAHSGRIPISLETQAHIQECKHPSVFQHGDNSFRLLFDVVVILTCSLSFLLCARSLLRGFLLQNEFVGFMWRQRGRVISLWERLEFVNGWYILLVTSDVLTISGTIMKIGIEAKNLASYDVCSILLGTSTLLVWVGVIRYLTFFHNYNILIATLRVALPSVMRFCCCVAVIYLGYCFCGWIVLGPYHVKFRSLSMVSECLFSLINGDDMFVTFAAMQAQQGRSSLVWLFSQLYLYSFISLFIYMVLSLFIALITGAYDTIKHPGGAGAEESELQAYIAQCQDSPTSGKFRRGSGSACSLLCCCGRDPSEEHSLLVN
#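 Agonist activity was taken from a 110 s kinetic Ca2+ dye read on the FDSS after pinning compounds onto TRPML1-DL cells. The cells were seeded at 1,500/well with Tet inducer, incubated about 16 h, then dye-loaded at room temperature.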
# The depositor's hits bear a star; ? = inconclusive; / = not tested or not shown; [ ] = dose if it differs, or a comment.
SMILES,D2 ag,PINK1 modulator,Six1-Eya2 blk,CtBP-E1A inh,D2 PAM,TRPML1 agonist
C[C@@H]1C(=O)O[C@H]2[C@H](O)[C@@]34[C@H]5C[C@@H](C(C)(C)C)[C@]36[C@@H](OC(=O)[C@@H]6O)O[C@@]4(C(=O)O5)[C@@]12O,-4.8,4.4%,-3,6,-3,0.2
COc1ccccc1Nc1ccc2nonc2c1[N+](=O)[O-],-3.0,0.5%,-5,-8,-2,0.0
O=C(NNC1=NS(=O)(=O)c2ccccc21)C1CC(=O)N(c2ccccc2)C1 (stereo not given),-3.6,-0.8%,1,-1,-10,-0.3
CN(C)S(=O)(=O)N1CCC(Oc2ccc(C(=O)NCc3cnn(C)c3)cc2)CC1,-15,-1.8%,5,3,-3,-1.4
CCC(NC(=O)c1ccccc1Br)c1ccccc1 (stereo not given),-5.6,1.0%,0,0,-4,-0.1
CCN(CC)CCCN=C1N[C@@H](c2cccc(F)c2)C(C(=O)OC)=C(C)N1Cc1ccccc1,0.2,-0.5%,1,-10,-9,0.3
Cc1ccc(OCC(=O)c2cc(C)n(Cc3cccs3)c2C)c([N+](=O)[O-])n1,2.2,6.2%,?,-1,-15,0.0
COc1ccc(C(=O)CC(=O)C(=O)Nc2ccccc2C(F)(F)F)cc1,-12,4.3%,1,/,-16,1.4
CCCC(=O)N1CCCC1(C)C(=O)Nc1ccc2nc(C)ccc2c1 (stereo not given),-2.6,2.2%,-1,0,-8,-0.1
S=C(N/N=C1\C2CN3CCN(C2)CC1(c1ccccc1)C3)Nc1ccccc1,-1.2,3.4%,-16,-16,-12,-0.8
CN(C)S(=O)(=O)c1ccc(Cl)c(NC(=O)COC(=O)CNC(=O)c2ccco2)c1,1.8,-3.4%,8,-25,-9,1.2
O=C(Cc1ccc(-n2c(=O)c3ccccc3n(Cc3ccccc3F)c2=O)cc1)NCC1CCCO1 (stereo not given),-4.0,1.8%,-9,-1,13,-0.1
Cc1ccc(OCC(=O)N2N=C(c3ccncc3)CC2(O)C(F)(F)F)cc1C (stereo not given),-4.9,2.7%,-3,/,-15,0.7
O=C(c1nn2c(C(F)(F)F)cc(-c3cccs3)nc2c1Br)N1CCCc2ccccc21,-5.3,6.8%,-9,-11,-9,0.8
C#CCOCCOCCOCCNc1nc(N2CCN(C(=O)[C@H](CCC(=O)O)n3cc([C@@H](N)CCCCN)nn3)CC2)nc(N2CCN(C(=O)[C@H](CCC(=O)O)n3cc([C@@H](N)CCCCN)nn3)CC2)n1,-3.4,-0.1%,-23,-23,-7,0.1

# Next section; the last 2 above are carried over.
SMILES,D2 ag,PINK1 modulator,Six1-Eya2 blk,CtBP-E1A inh,D2 PAM,TRPML1 agonist
O=C(c1nn2c(C(F)(F)F)cc(-c3cccs3)nc2c1Br)N1CCCc2ccccc21,-5.3,6.8%,-9,-11,-9,0.8
C#CCOCCOCCOCCNc1nc(N2CCN(C(=O)[C@H](CCC(=O)O)n3cc([C@@H](N)CCCCN)nn3)CC2)nc(N2CCN(C(=O)[C@H](CCC(=O)O)n3cc([C@@H](N)CCCCN)nn3)CC2)n1,-3.4,-0.1%,-23,-23,-7,0.1
Nc1c(Cl)ncnc1NCCc1ccc(O)cc1,-0.2,-0.1%,4,3,1,/
O=C(Nc1ccc(N2CCN(C(=O)c3ccccc3)CC2)cc1)c1ccc([N+](=O)[O-])o1,13,4.2%,-9,/,-14,0.4
Cc1nc(C)n(C(=O)N(c2ccccc2)c2ccccc2)n1,-4.0,-1.1%,1,9,23,-1.0
O=C(Nc1ccc(-c2ccc3nncn3n2)cc1)C1CCCC1,1.7,4.1%,-1,5,2,0.3
COc1ccc(C2NC(=S)NC(O)(C(F)(F)F)C2C(=O)c2cccs2)cc1 (stereo not given),-2.9,2.1%,2,14,-16,0.9
CC(=O)CCc1oc2ccc(C)cc2c1-c1ccc(C)o1,-1.6,3.7%,-20,-24,-7,2.1
CC1=C(C#N)C(Nc2ccc(C)cn2)(C(F)(F)F)C(=O)N1 (stereo not given),2.5,/,-3,7,-30,0.0
COc1cscc1C(N)=O,-3.0,0.8%,8,/,-14,-0.1
CCOC(=O)c1ccc(NC(=O)CSc2nncn2-c2cccnc2)cc1,-3.9,-0.6%,6,-4,-4,-0.1
Cc1ccc2nc(SCC(=O)NNC(=O)c3ccccc3)[nH]c2c1,-4.4,-0.3%,-1,-5,-25,-0.7
CC(C)(C)Nc1nc(Cl)nc(NCc2ccccc2)n1,-1.1,2.1%,-6,-10,-22,2.8
O=C(NCc1ccc2c(c1)OCO2)c1cc2c(s1)CSC2,1.4,0.4%,-6,4,-5,-0.1
COc1ccccc1C(=O)NC(CCSC)C(=O)NNC(=O)c1csc(N2CCOCC2)n1 (stereo not given),-1.4,-0.9%,-3,-5,-30,0.0
COCCCNC(=O)CN(c1ccc(F)cc1)S(=O)(=O)c1ccc2c(c1)OCCO2,-0.3,-1.2%,13,3,-1,-0.2
CCOC(=O)Cc1ccc(NC(=O)c2ccc(C(C)(C)C)cc2)cc1,-2.4,-0.8%,6,13,0,-0.8
COc1ccc(OCc2n[nH]c(=S)n2-c2ccc(C)cc2)cc1,4.6,0.9%,-6,/,-2,-1.0
COC(=O)c1nn(-c2ccccc2)c(Sc2ccc(Br)cc2)c1/C=N/O,-3.4,-3.5%,2,-8,-11,0.0
OC(COCc1ccccc1)COCc1ccccc1,-1.9,2.3%,9,-2,-15,-0.4
O=C(O)c1ccc(CN2C[C@@H](CO)O[C@@H](n3cnc4c(Nc5ccccc5)ncnc43)C2)cc1,13,0.3%,3,7,6,0.4
COc1cccc(NS(=O)(=O)c2ccc3c(c2)n(C)c(=O)c(=O)n3C)c1,-1.2,0.8%[38.3 µM],-2,1,-18,-0.7
Cc1cc(=O)n2nc(N3CCCC3C(=O)Nc3ccc(C(C)C)cc3)sc2n1 (stereo not given),-2.0,1.4%,23,0,-4,2.6
O=C(CN1C(=O)c2ccccc2C1=O)N1CCN=C1c1ccccc1,2.8,-1.9%,1,6,-1,0.2
COc1cc2c(cc1OC)CN(CCC(C)c1ccc(Cl)cc1)CC2 (stereo not given),-4.0,4.0%,-8,-19,-24,-0.5
CC1CCN(C(=O)c2nc[nH]c2C(=O)N2CCC(C)CC2)CC1,-2.2,0.4%,3,4,-11,-0.4
Cc1ccc(OCCC(=O)Nc2ccc(S(=O)(=O)Nc3nccs3)cc2)cc1,-1.4,-1.7%,-5,?,-2,-0.6
Cc1cccc(NS(=O)(=O)c2c(C)noc2C)c1,8.2,1.9%,9,12,-1,2.2
Cc1ccc(C)c(NS(=O)(=O)c2csc(C(N)=O)c2)c1,-1.0,4.0%,11,-14,-9,1.1
CN(C)c1ccc(-c2ccnc3c2CC(C)(C(=O)Nc2ccc4c(c2)OCO4)O3)cc1 (stereo not given),-0.7,9.0%,10,7,-1,-0.5
COCCn1c(=O)c2ccccc2c2ccccc2c1=O,-0.6,6.9%,0,1,-4,0.0
Cn1c(=O)c2c(nc(OC/C=C/c3ccccc3)n2C)n(C)c1=O,-0.1,/,5,7,6,0.5
CCCCOc1ccc(C(=O)NNC(=S)NC(=O)CC)cc1,-6.8,4.7%,-21,-6,-30,-0.4
CCOC(=O)Cn1nc(-c2ccccc2)c2cnc3ccc(CC)cc3c21,-4.0,6.8%,-3,-3,-5,1.4
O=[N+]([O-])c1cc(C(F)(F)F)ccc1N1CCC(O)CC1,-0.5,-1.9%,7,1,-3,-0.5
O=C(CSc1ccc(Cl)cc1)Nc1ncccn1,-4.9,0.7%,14,12,-2,-0.4
O=C(N/C(=C\c1ccco1)C(=O)N1CCC(O)CC1)c1ccccc1,-4.3,0.4%,-6,6,-8,0.8
COc1ccc(Cl)cc1C(=O)NCCCN1CCOCC1,0.6,0.7%,-4,8,-11,-0.3
CN(CCOc1ccc(Br)cc1)C(=O)CNC(=O)c1ccc2ccccc2c1,1.8,1.2%,-4,1,-5,2.3
Cn1c(=O)oc2cc(S(=O)(=O)N3CCN(c4ccccn4)CC3)ccc21,-1.0,0.4%,5,-4,-2,0.3
Cc1cc(C)c(S(=O)(=O)N2CCCC2)c(C)c1,-0.7,5.4%,3,11,-4,-0.4
Cc1ccc(NS(=O)(=O)c2cccc(C(=O)NC3CCN(Cc4ccccc4)CC3)c2)c(C)c1,-0.1,0.3%,-2,9,-3,1.0
CCCCCCCCOC(=O)C(NC(=O)CCC(=O)Nc1ccc(S(N)(=O)=O)cc1)C(O)c1ccccc1 (stereo not given),-2.3,1.7%,-5,0,-7,-1.0
COc1ccc(CCNC(=O)c2ccc(N(C)S(=O)(=O)c3ccccc3)cc2)cc1,2.5,-0.1%,2,1,-1,2.6
CCN(C(=O)COc1ccc(C(C)=O)cc1)c1cccc2ccccc12,-2.5,3.9%,5,-8,-12,1.4
CC(=O)c1cc(C#N)c(Oc2ccc(Cl)cc2Cl)nc1C,-2.6,4.3%,-1,0,9,1.7
C/C(=N\NC(=O)NC1CCCCC1)C1CCCCC1,-0.5,11%,2,0,-7,1.3

# Six entries already listed, sorted by the value under D2 PAM, low to high:
compound | D2 PAM
CCCCOc1ccc(C(=O)NNC(=S)NC(=O)CC)cc1 | -30
COc1ccc(Cl)cc1C(=O)NCCCN1CCOCC1 | -11
O=C(N/C(=C\c1ccco1)C(=O)N1CCC(O)CC1)c1ccccc1 | -8
CCCCCCCCOC(=O)C(NC(=O)CCC(=O)Nc1ccc(S(N)(=O)=O)cc1)C(O)c1ccccc1 (stereo not given) | -7
CN(CCOc1ccc(Br)cc1)C(=O)CNC(=O)c1ccc2ccccc2c1 | -5
COc1ccc(CCNC(=O)c2ccc(N(C)S(=O)(=O)c3ccccc3)cc2)cc1 | -1

# The listing continues:
SMILES,D2 ag,PINK1 modulator,Six1-Eya2 blk,CtBP-E1A inh,D2 PAM,TRPML1 agonist
CCCC(=O)N1CCCC1(C)C(=O)Nc1ccc(OC(F)F)cc1 (stereo not given),-1.6,1.6%,1,2,-3,-0.9
Cc1nn(-c2ccccc2)nc1C(=O)Nc1nnc(C(F)(F)F)s1,0.2,?,7,5,-1,0.0
COc1nsnc1NS(=O)(=O)c1ccc(NC(=S)NC(=O)c2ccncc2)cc1,-5.4,1.3%,-2,-7,-15,-0.3
CCC(=O)Nc1ccc(C(=O)NCCCn2ccnc2)cc1,-3.2,-0.4%,4,-5,-2,1.8
Cc1ccc(CNC(=O)CCc2c(C)nc3c(c(C)nn3-c3ccc(C)cc3)c2C)cc1,-2.1,0.2%,-3,-1,-1,-0.5
O=C(NC(=S)N(CCO)Cc1ccccc1)c1ccc(S(=O)(=O)N2CCCC2)cc1,-1.1,1.4%,8,/,-9,-0.4
O=C(Cc1ccccc1)CC(CC(=O)c1ccccc1)c1ccccc1 (stereo not given),-7.9,1.0%,15,-12,-9,2.3
CS(=O)(=O)CCSc1ncccc1C(=O)NCc1cccs1,-3.3,5.6%,0,/,-16,-0.3
COc1cc(/C=C/C(=O)OCC(=O)NC(C)c2ccccc2)cc(OC)c1OC (stereo not given),1.5,-0.7%,3,2,-2,0.7
O=C(Cn1cnc2c(nnn2-c2ccccc2)c1=O)N1CCOCC1,-5.6,2.2%,0,4,-2,-0.1
Cc1cc(=O)oc(C)c1C(=O)NC12CC3CC(CC(C3)C1)C2,-1.6,3.0%,13,1,1,-0.8
COc1ccc(C(=O)NC(=S)N2CCN(c3ccc([N+](=O)[O-])cc3)CC2)cc1,-0.9,1.4%,-25,-9,-8,-0.3

# Compounds were not picked by outcome; 1.3% or so of the library scored in one or more.
